# Vif TR-FRET = inhibitors of Vif binding to APOBEC3G peptide, primary screen, biochemical, TR-FRET, GST-Vif 1-94, biotin-A3G peptide, dose response retest (AID 1117319) | TR-FRET GST-Vif / biotin-A3G peptide binding; higher % means a stronger effect; test concentration not given here; strong numbers were not always called active | one-dose inhibition, %; IC50 in µM for titrated hits | 260,000 compounds, 0.57% hits;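 active means above the screen mean plus three standard deviations and confirmed in dose response; inconclusive means results disagree or hit not tested in dose response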;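 further: Vif residues 1-94 fused to GST binding biotinylated APOBEC3G peptide 110-148; 0% = full assay without inhibitor and 100% = GST in place of GST-Vif; retest series ran down from 100 µM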
# AF4-AF9 inh = inhibitors of human MLL-AF4/AF9 interaction. inhibition, % at 10 µM. P42568. AID 651704. AlphaScreen, biotin-AF4 peptide binding to FLAG-AF9. 350,000 compounds, 0.47% hits;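 active means every replicate reaching a set inhibition limit, whatever the replicate mean, cut at about 25% in these data; inconclusive means mean inhibition reaches that limit but some replicates miss it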;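 further: 0% = plate neutral control median and 100% = total signal loss; the record names both 10 and 1 µM as test concentration; the first replicate is given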
# Ecoli rRNA inh = selective bacterial rRNA inhibition in E. coli | 350,000 compounds, 1.6% hits | E. coli WT GFP vs humanized-ribosome RFP mutants, fluorescence, 24 h; stronger effect = lower value; DMSO median 0, no signal -100 | GFP signal change (wild-type ribosome), % (test concentration not listed);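 active means significant combined selectivity score with lowered wild-type GFP, culture density cut under 30%, mutant RFP and density less affected; inactive means any of these conditions unmet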; further: one replicate is shown; some compounds called inactive have numbers as strong as hits
# ALR inh = inhibitors of human sulfhydryl oxidase ALR; P55789; purified ALR, DTT oxidation, H2O2 HRP-luminol luminescence; inhibition, % (no concentration beside the values); 290,000 compounds, 3.8% hits;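 active means mean and each replicate at 75% or more; inconclusive means only one of the two met; inactive means neither met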;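 further: stock transfer was 7.5 nL into about 7.5 µL; 0% = neutral wells and 100% = wells with inactivated enzyme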
# Target sequence (P55789 whole entry, looked up): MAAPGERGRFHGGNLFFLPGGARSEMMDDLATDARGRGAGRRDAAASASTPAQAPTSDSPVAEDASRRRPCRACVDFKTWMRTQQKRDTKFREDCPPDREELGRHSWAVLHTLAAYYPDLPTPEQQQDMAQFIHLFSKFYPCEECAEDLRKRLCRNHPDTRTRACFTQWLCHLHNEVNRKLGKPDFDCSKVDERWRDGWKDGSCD
# E coli growth = E. coli growth inhibition; Escherichia coli growth, OD600, 23 h; stronger effect = lower value; OD600 absorbance (test concentration not listed); 330,000 compounds, 0.21% hits;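 active means OD600 absorbance below the run mean of sample wells minus 3.6 SD, in any replicate, cut at about 0.56 in these data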;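 further: stock transfer was 300 nL into about 60 µL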
# FGF22 binding = FGF22 (human) thermal shift binding; AID 651658; recombinant FGF22 thermal shift, SYPRO orange fluorescence; percent of sucrose octasulfate shift, DMSO zero; calls only at 9.99 µM; 340,000 compounds, 1.5% hits;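 active means melting point raised past a set limit in the mean and every replicate; inconclusive means no clear call; three in four hits are not shown here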
# Target sequence (Q9HCT0 whole entry, looked up): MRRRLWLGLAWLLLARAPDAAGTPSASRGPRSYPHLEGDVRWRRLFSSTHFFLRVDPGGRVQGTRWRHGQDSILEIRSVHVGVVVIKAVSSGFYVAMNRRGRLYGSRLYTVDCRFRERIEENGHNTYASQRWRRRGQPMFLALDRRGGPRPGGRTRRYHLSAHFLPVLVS
# HNF4A DNA FP = change in binding of human HNF4 alpha to DNA; P41235; HNF4a-FITC DNA binding, fluorescence polarization, 1 h; activity change, % at 10 µM; 360,000 compounds, 0.3% hits; in the data active means activity change above about 30%, passing the limit was not always enough;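 further: controls were the assay level and a saturating level of protein; the project sought stronger binding though the title names inhibitors; some compounds called inactive have numbers as strong as hits; positive values seem to mean higher polarization but the record does not say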
# Target sequence (P41235 whole entry, looked up): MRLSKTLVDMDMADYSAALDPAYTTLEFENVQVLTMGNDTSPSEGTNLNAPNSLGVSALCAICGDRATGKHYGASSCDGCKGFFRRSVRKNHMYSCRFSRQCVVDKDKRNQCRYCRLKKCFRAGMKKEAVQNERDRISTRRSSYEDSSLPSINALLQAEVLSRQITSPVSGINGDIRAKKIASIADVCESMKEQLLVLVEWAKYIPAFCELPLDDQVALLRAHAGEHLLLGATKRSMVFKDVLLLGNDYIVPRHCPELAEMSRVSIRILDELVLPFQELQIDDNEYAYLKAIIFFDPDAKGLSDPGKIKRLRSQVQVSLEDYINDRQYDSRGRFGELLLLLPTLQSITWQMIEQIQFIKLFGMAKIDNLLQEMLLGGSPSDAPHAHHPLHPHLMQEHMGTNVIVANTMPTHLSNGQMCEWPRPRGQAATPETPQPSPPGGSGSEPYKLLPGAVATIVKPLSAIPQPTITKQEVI
# Ecoli rRNA inh OD600 = further read-out of Ecoli rRNA inh, marked with its call; OD600 change, %; measured here: OD600 growth;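 optical density of the mix in the first replicate; 0 = DMSO median and -100 = no signal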
# Ecoli rRNA inh RFP = recorded beside Ecoli rRNA inh, whose call it bears; RFP signal change, %; measured here: RFP humanized mutant strains;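 first replicate; 0 = DMSO median and -100 = no signal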
# An asterisk follows results filed as active; i = inactive; ? = inconclusive; nt = no result given; + = active, no number; & = joins results of further samples. Only part of the results is shown; rates above refer to the full screens.
Molecule	HNF4A DNA FP	Ecoli rRNA inh	E coli growth	FGF22 binding	Ecoli rRNA inh OD600	AF4-AF9 inh	Vif TR-FRET	Ecoli rRNA inh RFP	ALR inh
C[C@@H]1CN([C@H](C)CO)C(=O)Cc2cc(NC(=O)Nc3cccc4ccccc34)ccc2O[C@H]1CN(C)C(=O)Nc1cccc2ccccc12	nt	-6	nt	i	-7	-0.6	nt	1.2	nt
O=C(COc1ccccc1)N(Cc1cccc(F)c1)C1CCS(=O)(=O)C1 (configuration not stated)	2.3	8	0.7	i	4	-5.7	nt	-1.8	-5
O=C1CC(c2ccccc2)C(=O)N2C(=O)CC(c3ccccc3)C(=O)N12 (configuration not stated)	2.8	12	0.64	i	8	-2.4	-3%	3.1	nt
COC(=O)N(C)C[C@H]1OCc2ccccc2-c2ccccc2C(=O)N([C@H](C)CO)C[C@H]1C	nt	2	nt	i	4	-2.7	nt	-0.5	nt
CCC(C)N(C(=O)CSc1nnc(-c2cccs2)n1C1CC1)C1CCS(=O)(=O)C1 (configuration not stated)	-1.0	9	0.72	i	7	-0.9	-3%	-0.6	nt
COc1ccccc1NC(=O)N1CCC(c2nc3ccccc3o2)CC1	-5.1	-20	0.68	i	-19	-2.6	-6%	-2.1	nt
COc1cc2[nH]c(=S)nc(NCCCOC(C)C)c2cc1OC	1.6	nt	0.71	nt	nt	nt	7%	nt	5
C[C@@H]1CCCCO[C@@H](CN(C)C(=O)CCCN(C)C)[C@@H](C)CN([C@@H](C)CO)C(=O)c2cc(NS(=O)(=O)c3ccc(Cl)cc3)ccc2O1	nt	5	nt	i	4	1.8	nt	0.9	nt
COc1ccc(-c2nnn(CC(=O)c3ccccc3)n2)cc1OC	1.0	-2	0.68	i	8	3.6	4%	-0.4	-3
CCn1c(CSCc2ccc(Cl)cc2)nnc1SCC(=O)Nc1cccc(C(=O)O)c1	-2.0	-15	0.7	i	-10	-1.1	-6%	-2.4	0
Cc1ccc(-c2nc(CNC(=O)c3cc(C)on3)cs2)cc1	-0.2	-8	0.69	i	-17	-0.7	-3%	-0.1	5
COc1ccc(C2CC(c3ccccc3)=NN2C(=O)COC(=O)c2cccnc2Cl)cc1 (configuration not stated)	-1.0	nt	0.71	nt	nt	nt	nt	nt	-7
C[C@@H]1CN([C@@H](C)CO)C(=O)Cc2cc(NC(=O)Cn3cnnn3)ccc2O[C@H]1CN(C)C(=O)Nc1ccccc1	nt	1	nt	i	5	1.5	nt	4.0	nt
Cc1ccc(S(=O)(=O)N(C)C[C@@H]2OCCCC[C@H](C)Oc3ccc(NS(=O)(=O)c4c(C)noc4C)cc3C(=O)N([C@H](C)CO)C[C@H]2C)cc1	nt	3	nt	i	3	2.0	nt	3.0	nt
O=C(O)c1cccc(NC(=O)c2ccc(CN3C(=O)c4ccccc4C3=O)cc2)c1	-1.5	-3	0.63	i	0	-1.7	nt	0.2	-4
Cc1cc(NC(=O)CN2CCOCC2)n(-c2ccccc2)n1	1.0	9	0.69	i	9	-4.0	-2%	2.2	-6
Cc1cc(NC(=O)COC(=O)C2COc3ccccc3O2)no1 (configuration not stated)	-2.4	nt	0.69	nt	nt	nt	12%	nt	6
COc1ccc(-c2csc(NC(=O)Cc3cccc4ccccc34)c2C(=O)O)cc1	-0.2	-50	0.72	i	-40	0.3	4%	-13	nt
CCN1C(=O)NC2C1N(S(C)(=O)=O)CCN2S(C)(=O)=O (configuration not stated)	0.6	5	0.76	nt	3	nt	12%	1.5	-4
Cc1ccc(C(=O)Nc2scc(-c3ccccc3)c2C(=O)O)o1	3.7	-34*	0.68	i	13*	-3.0	-11%	-4.6*	nt
COc1ccc(NC(=O)Nc2ccc3c(c2)C(=O)N([C@H](C)CO)C[C@H](C)[C@H](CN(C)Cc2ccc(-c4ccccc4)cc2)O3)cc1	nt	-4	nt	i	-1	2.3	nt	-3.3	nt
O=C(Nc1cc(S(=O)(=O)N2CCOCC2)ccc1N1CCCC1)c1cc(F)c(F)cc1Cl	2.5	8	0.67	i	12	-4.0	1%	0.4	nt
Cc1cc(N2CCC(C)CC2)nc(SCC(=O)c2ccccc2)n1	-1.3	nt	0.73	nt	nt	nt	0%	nt	4
CN(c1ccccc1)c1nc2ccsc2c(=O)s1	4.8	-39	0.65	nt	-46	nt	4%	-7.2	1
C[C@@H]1CN([C@H](C)CO)C(=O)c2cc(N(C)C)ccc2O[C@@H](C)CCCCO[C@H]1CN(C)C(=O)NC1CCCCC1	nt	3	nt	i	2	3.3	nt	0.4	nt
O=C1CC(NS(=O)(=O)c2cccs2)CN1c1cccc(F)c1 (configuration not stated)	2.4	3	0.65	i	2	-1.3	8%	1.1	-2
CCOC(=O)c1c(S(=O)(=O)NCCc2ccco2)c(C)n(C)c1C	1.6	-2	0.7	i	3	4.4	-1%	-2.6	3
Cc1noc(C)c1S(=O)(=O)Nc1ccc2c(c1)C(=O)N([C@H](C)CO)C[C@H](C)[C@@H](CN(C)S(=O)(=O)c1cn(C)cn1)O2	nt	1	nt	i	6	-1.3	nt	0.2	nt
CCOC(=O)c1cnc2c(C(=O)OC)cccc2c1NCc1ccco1	-4.8	nt	0.69	nt	nt	nt	10%	nt	46
Cn1cccc1CC(=O)NNC(=O)Nc1ccc(F)cc1	2.3	5	0.72	i	6	1.6	0%	-1.8	26
O=C(N/N=C/c1cc(Cl)ccc1O)c1ccccc1Br	-6.5	-6	nt	i	-3	-1.0	-3%	0.6	nt
CC(=O)N(C[C@H]1N[C@H](CO)[C@H]1c1ccc(-c2cccnc2)cc1)C1CCCC1	nt	2	nt	i	2	-4.2&-3.3	nt	-0.6	nt
N#CCCN(C(=O)COc1ccc(C#N)cc1)c1ccc(F)cc1	0.2	11	0.7	i	2	-0.7	2%	1.9	nt
CC(=O)Oc1ccc2c(c1)C(=O)c1ccccc1CO2	-1.4	nt	0.69	nt	nt	nt	7%	nt	5
C=CCOc1ccccc1CNn1c(C)n[nH]c1=S	-2.9	nt	nt	i	nt	-2.0	nt	nt	nt
CCc1ccc(NS(=O)(=O)c2ccc3[nH]cc(C(=O)N(C)Cc4ccco4)c(=O)c3c2)cc1	-0.2	-25*	0.69	i	0.4*	1.3	7%	3.9*	1
COCCn1nnnc1C(c1ccccc1OC)N1CCN(C(=O)c2ccco2)CC1 (configuration not stated)	-1.9	1	0.66	+	4	-3.8	nt	0.0	0
CC(=O)c1ccc(NC(=O)c2ccc3c(=O)n4c(nc3c2)CCCCC4)cc1	-3.1	-12	0.68	i	-23	0.1	nt	2.4	-5
C[C@@H]1CN([C@@H](C)CO)C(=O)c2cc(NC(=O)CCC(F)(F)F)ccc2O[C@@H]1CN(C)Cc1ccc(C(F)(F)F)cc1	nt	-2	nt	i	-21	0.7	nt	3.8	nt
COCCNC(=O)/C(C#N)=C/c1c(N2CCCCCC2)nc2c(C)cccn2c1=O	-1.4	-4	0.67	nt	-7	4.8	-6%	-0.1	18
Cc1ccc(Cn2c(C(=O)O)cc3sccc32)cc1	-2.6	nt	0.7	nt	nt	nt	-4%	nt	15
Cc1cc(/C=C2\SC(=S)N(C)C2=O)c(C)n1-c1ccccc1O	84	-38	0.73	i	-47	3.4	nt	0.4	-6
COc1ccc(C(=O)c2no[n+]([O-])c2C(=O)c2ccc(OC)cc2)cc1	1.2	nt	0.72	nt	nt	nt	7%	nt	nt
CC1CCN(CC(O)COc2ccc(F)cc2)CC1 (configuration not stated)	6.2	13	0.73	i	13	-6.9	-1%	3.0	-59
COc1ccc(OC)c(-c2csc(N(C)C(=O)Cc3ccccc3)n2)c1	-1.4	2	0.69	i	3	-1.5	-10%	0.7	-9
CCNc1nc(SCC(=O)OC)nc(N(C)C)n1	3.0	16	0.67	nt	3	-0.7	15%	-0.3	nt
O=C(C[C@@H]1CC[C@H](NS(=O)(=O)c2ccc(F)cc2)[C@@H](CO)O1)NC1CCC1	nt	-5	nt	i	-2	-1.1	nt	2.1	nt
CCOC(=O)c1ccc(OS(=O)(=O)c2ccccc2)c(OC)c1	1.6	nt	0.68	nt	nt	nt	nt	nt	-5
CN(C)S(=O)(=O)n1cc(/C=C(\NC(=O)c2ccccc2)C(=O)N2CCOCC2)c2ccccc21	3.1	2	0.7	i	5	1.4	-5%	-0.8	-2
COCCNC(=O)C1(C)CCCN(C(=O)c2ccc(C(=O)OC)cc2)C1 (configuration not stated)	-1.6	13	nt	i	23	-2.3	nt	0.9	nt

# Other results:
Molecule	HNF4A DNA FP	Ecoli rRNA inh	E coli growth	FGF22 binding	Ecoli rRNA inh OD600	AF4-AF9 inh	Vif TR-FRET	Ecoli rRNA inh RFP	ALR inh
O=C(CN1C(=O)C2CCCCC2C1=O)OCC(=O)c1ccc(Cl)s1 (configuration not stated)	-2.2	-5	0.65	i	-2	-7.0	-1%	-1.4	-3
COc1cccc2cc(C(C)N(CCCN3CCOCC3)C(=S)Nc3cccc(C)c3)oc12 (configuration not stated)	6.5	7	nt	i	11	5.0	1%	1.6	4
COC(=O)c1ccc(NC(=O)C(C)N2C(=O)c3ccccc3C2=O)cc1 (configuration not stated)	-3.6	nt	0.71	nt	nt	nt	-9%	nt	0
CC(=O)c1ccc(-n2c(-c3cc(-c4ccco4)[nH]n3)n[nH]c2=S)cc1	-2.5	nt	0.71	nt	nt	nt	32%	nt	?
Cc1ccc(NC(=O)c2ccc(OCc3c(C)noc3C)cc2)c(C)c1	2.6	-19	0.68	+	-18	0.6	-8%	-8.9	-3
CCCNC(=O)[C@@H]1[C@@H](CO)[C@@H]2Cn3c(ccc(-c4cncnc4)c3=O)[C@H]1N2C(=O)Nc1ccccc1	nt	-1	nt	i	3	1.0	nt	-1.1	nt
O=C(O)c1cc(S(=O)(=O)N2CCOCC2)ccc1N1CCCCC1	-1.5	15	0.7	i	9	0.5	2%	-0.7	-3
O=C(C[C@H]1C=C[C@@H](NC(=O)Cc2ccccn2)[C@H](CO)O1)NCCc1ccccc1	nt	0	nt	i	-2	0.1	nt	-0.5	nt
CCN1CCc2c(sc(NC(=O)c3ccc(S(=O)(=O)N4CCOCC4)cc3)c2C(N)=O)C1	5.8	-11	0.76	i	-15	0.0	9%	-0.1	-12
O=C(NNC(=O)c1cccs1)c1ccc2ccccc2c1	1.9	6	0.73	nt	-6	-4.8	-4%	-2.1	nt
O=C(CCc1ccc(S(=O)(=O)NCc2ccccc2)cc1)N1CCN(Cc2ccc3c(c2)OCO3)CC1	0.8	nt	0.71	nt	nt	nt	2%	nt	nt
CN(C)c1ccc(-c2ccnc3c2CC(C)(C(=O)NCc2ccncc2)O3)cc1 (configuration not stated)	3.2	8	nt	i	7	4.5	nt	2.6	nt
CCc1ccc(NC(=O)C(C)OC(=O)CC(NC(C)=O)c2ccccc2)cc1 (configuration not stated)	-0.9	-2	0.64	i	4	-1.6	nt	1.1	-7
CCCNC(=O)N1[C@H](CO)[C@H]2c3ccccc3N(C(=O)Nc3cccc(Cl)c3)C[C@H]21	nt	-57	nt	i	-72	1.4	nt	-13	nt
COc1ccc(-c2nc3c(C)cc(Br)cn3c2Cc2ccccc2C(F)(F)F)cc1OC	nt	-2	nt	i	1	3.0	nt	-0.7	nt

# Compound activity (PubChem)
